Mtb betalactam: beta-lactam sensitization of Mtb H37Rv; M. tuberculosis H37Rv growth with meropenem, percent inhibition; hits of this screen are not shown here; inhibition, % at 25 µM; 0.27% of 330,000 active; AID 434955;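 active means about 74% or more and at least 40 points above the plate without the antibiotic, then above 30% in a dose series; inconclusive means first-round hits that could not be retested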;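 further: growth measured after seven days incubation then overnight dye step; 0% = bacteria only wells and 100% = bacteria with antibiotic; twin plates without the antibiotic show which effects depend on it; some results filed as inactive read as strong as hits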
Numbers without * were called inactive; u = inconclusive.

SMILES | Mtb betalactam
COc1ccc(-c2sc3cc4c(cc3c2-c2ccc(OCCN3CCOCC3)cc2)OCO4)cc1 | -7
Cc1nn(Cc2ccccc2)c(C)c1C(=O)NCCCN1CCCC1=O | 1
COc1ccc(CCNC(=O)COC(=O)C2CC2)cc1OC | 17
Cc1cc(Br)c(NC(=O)COC(=O)C2CCCCC2)c(Br)c1 | 37
O=C(O)c1cc[c]([Hg][Cl])cc1 | 100
Nc1ccn(CC(=O)NCCc2ccccn2)c(=O)n1 | -6
COc1ccccc1N1CCN(C(=O)c2cc(C(=O)N3CCN(c4ccccc4OC)CC3)cc([N+](=O)[O-])c2)CC1 | -6
COC(=O)[C@]1(C)N[C@H](CN(C)C(=O)C2CCCCC2)[C@@H]2C(=O)N(Cc3ccccc3)C(=O)[C@@H]21 | -2
COc1cccc(CNC(=O)COC(=O)c2c(NC(C)=O)sc(C)c2C)c1 | 1
COC(=O)C1=C(c2c(C)noc2C)C[C@@H]2CC[C@H]1N2C(=O)NCc1ccc(F)cc1 | -4
COCCNc1nnc(SCC(=O)Nc2cc(C)on2)s1 | -5
OC(CNCC1CCCCC1)COc1ccccc1 (stereo not given) | -3
Cc1ccc(NC(=O)CN(C)C(=O)COC(=O)[C@@H](NC(=O)c2ccccc2F)C(C)C)cc1 | -6
Cc1cccnc1NC(=O)CNC(=O)c1sc2ccccc2c1Cl | 9
COC(=O)[C@@H](Cc1ccccc1)NC(=O)Cn1cnc2c(SC)nc(N)nc21 | -2
COc1ccc(Cl)cc1NC(=O)CN(C)C(=O)c1ccc(-n2nc(C)cc2C)cc1 | -5
CCN(CC(=O)Nc1ccccc1OC)C(=O)C1CCCC1 | -3
Nc1c(C(=O)OCC(=O)Nc2ccccc2Br)[nH]c(=O)[nH]c1=O | 2
COc1ccc(NC(=O)c2cc(-c3ccccc3)nc3c2cnn3C(C)C)c(OC)c1 | 4
Cc1ccc(S(=O)(=O)N(C)C[C@@H]2Oc3ccc(NC(=O)CCC(F)(F)F)cc3CC(=O)N([C@@H](C)CO)C[C@@H]2C)cc1 | -5

Two compounds picked at random from the list so far:
SMILES | Mtb betalactam
Cc1ccc(NC(=O)CN(C)C(=O)COC(=O)[C@@H](NC(=O)c2ccccc2F)C(C)C)cc1 | -6
COc1ccc(NC(=O)c2cc(-c3ccccc3)nc3c2cnn3C(C)C)c(OC)c1 | 4

(cont.)
SMILES | Mtb betalactam
CC12CCC(=O)N1C(C(=O)N1CCN(c3ccc([N+](=O)[O-])cc3)CC1)CS2 (stereo not given) | 5
COc1cc(/C=C/C(=O)O)cc(S(=O)(=O)NNC(=O)c2ccc3c(c2)OCO3)c1OC | -2
O=C(/C=C/c1cccc(F)c1)OCC(=O)N1CCc2ccccc21 | -13
COc1cc(/C=N/NC(=O)c2cc(C)oc2C)ccc1OCc1ccccc1 | 2
Cc1ccc(S(=O)(=O)N2[C@@H](c3ccc(Cl)cc3)C(C(=O)O)=CC[C@H]2c2cccc(Cl)c2)cc1 | -6
CCN(CC(=O)NCc1cccs1)C(=O)COc1ccccc1C#N | 2
O=C(C[C@@H]1C/C=C\CCC(=O)OC[C@@H]2CCCN2C1=O)NCCO | -10
CSCCC(NC(=O)COc1ccccc1)C(=O)N1CC(C)OC(C)C1 (stereo not given) | 0
O=C1N[C@@H](Cc2ccccc2)COC(=O)[C@@H](Cc2ccc(F)cc2)CC/C=C/C[C@H]1CC(=O)N(CCO)Cc1ccccc1 | 19
O=C(Nc1nc(-c2ccccn2)cs1)c1ccc(-c2ccccc2F)o1 | 93

Structural class: those above with bromine (two)
SMILES | Mtb betalactam
Cc1cc(Br)c(NC(=O)COC(=O)C2CCCCC2)c(Br)c1 | 37
Nc1c(C(=O)OCC(=O)Nc2ccccc2Br)[nH]c(=O)[nH]c1=O | 2

(further entries)
SMILES | Mtb betalactam
COC(=O)[C@]1(Cc2ccccc2)N[C@H](CN(C)C(=O)Nc2ccc(Cl)cc2)[C@@H]2C(=O)N(C)C(=O)[C@@H]21 | -6
O=C1C=C(c2ccc(OC(F)(F)F)cc2)C[C@@H](c2ccc(Cl)cc2)C1 | 5
CC(C)CN(C(=O)CSc1n[nH]c(-c2cccs2)n1)C1CCS(=O)(=O)C1 (stereo not given) | 3
O=C(NCC(c1ccco1)N1CCCC1)c1cc2ccccc2s1 (stereo not given) | -2
Cn1c(CNC(=O)c2ccc3c(c2)OCO3)nnc1SCC(=O)Nc1ccccc1Cl | 0
C=CC[C@H](CC(=O)N(CCO)Cc1ccccc1)C(=O)NC[C@@H](OC(=O)[C@@H](CC=C)Cc1ccc(F)cc1)c1ccccc1 | -6
Cc1cccc(NC(=O)COC(=O)c2ccc3nc(C)c(C)nc3c2)c1 | 5
Nc1cc(Cl)ccc1C(=O)OCC(=O)NCC1CCCO1 (stereo not given) | -3
Cc1cc(Br)ccc1NC(=O)CNC(=O)CNc1cccc([N+](=O)[O-])c1 | 1
COc1cc(NC(=O)COC(=O)Cn2cnc3c2c(=O)n(C)c(=O)n3C)cc(OC)c1 | 4
COc1ccccc1NC(=O)NC1(C(=O)N2CCC(C)CC2)CCCCC1 | -5
COc1ccc(NC(=O)N(C)C[C@H]2Oc3ccc(NS(=O)(=O)c4cccs4)cc3C(=O)N([C@H](C)CO)C[C@@H]2C)cc1 | -16
COc1ccc(C(=O)NC(CCSC)C(=O)NC2CC2)cc1 (stereo not given) | -3
CCN(C(=O)COC(=O)C1CCN(S(=O)(=O)c2ccc(C)c(C)c2)CC1)C1CCCCC1 | -5
NC(=O)c1ccc(NC(=O)Cc2ccc(S(=O)(=O)N3CCCCC3)cc2)cc1 | -6
Cc1ccc(OCC(=O)Nc2ccncc2)c(C)c1 | -12
CC(Oc1cccc(Br)c1)C(=O)NNC(=O)CCNC(=O)c1ccccc1Cl (stereo not given) | 5
CCn1c(SCC(=O)Nc2sccc2C(N)=O)nnc1C1CC1 | -2
CCC1CCCCN1CCN1C(=O)C2C(C(=O)Nc3ccc(OC)cc3)C3C=CC2(O3)C1C(=O)NC1CCCCC1 (stereo not given) | -4
COC(=O)C1=C(c2ccc(OC)c(OC)c2)C[C@@H]2CC[C@H]1N2C(=O)N1CCOCC1 | -5

Exported in CSV form: part of the list above.
Structure,Mtb betalactam
COc1ccc(C(=O)NC(CCSC)C(=O)NC2CC2)cc1 (stereo not given),-3
COc1ccc(NC(=O)N(C)C[C@H]2Oc3ccc(NS(=O)(=O)c4cccs4)cc3C(=O)N([C@H](C)CO)C[C@@H]2C)cc1,-16
Cc1ccc(OCC(=O)Nc2ccncc2)c(C)c1,-12
CC(Oc1cccc(Br)c1)C(=O)NNC(=O)CCNC(=O)c1ccccc1Cl (stereo not given),5

Following part.
SMILES | Mtb betalactam
CCc1ccc(-c2nnn(CC(=O)N(C3CCCC3)C3CCS(=O)(=O)C3)n2)cc1 (stereo not given) | -2
Oc1c(Cl)cc(CN2CCOCC2)c2cccnc12 | 100
COc1ccccc1COCC(O)CN1CCN(S(=O)(=O)c2cccc(F)c2)CC1 (stereo not given) | 2
Cc1ccc(/C=C/C(=O)OCC(=O)NCc2ccc(Cl)cc2)o1 | -1
C[C@]12CCC3C(CC[C@H]4C[C@H](OC(=O)c5cccnc5)CC[C@]34C)C1CCC2=O (stereo not given in full) | -1
COc1ccc(NC(=O)C2CCCN(C(=O)c3ccc(Cl)cc3)C2)cc1S(=O)(=O)N(C)C (stereo not given) | -4
c1ccc(COc2cccc(CN3CCCCC3)c2)cc1 | 4
Cc1cc(C)cc(NC(=O)CN2C(=O)NC(Cc3c[nH]c4ccccc34)C2=O)c1 (stereo not given) | 1
COc1ccc(Cl)cc1C(=O)NNC(=O)c1ccc(F)c(S(=O)(=O)N2CCOCC2)c1 | 1
CCN(C(=O)COC(=O)c1ccc(Cl)c(S(=O)(=O)N2CCCCC2)c1)C1CCS(=O)(=O)C1 (stereo not given) | 2
COc1ccc(NC(=O)CN(C)CC(=O)NC(=O)NC2CCCCC2)cc1 | -4
C[C@H](NS(=O)(=O)c1ccc2c(c1)OCCCO2)C(=O)N1CCN(Cc2ccc(C#N)cc2)CC1 | -2
NC(=O)c1ccc(NC(=O)COC(=O)c2cc3c(s2)CCC3)cc1 | 2
Cc1ccc(S(=O)(=O)Nc2ccc(S(=O)(=O)Nc3nccs3)cc2)cc1C | 4
CCCC(NC(=O)c1ccc(Br)o1)c1nc2ccccc2[nH]1 (stereo not given) | -2
CCOC(=O)CN(C(=O)CSc1nnnn1C)c1ccccc1 | -2
Cc1ccc(OCC(=O)NNC(=O)C2CCC2)cc1C | -7
O=C(CN(Cc1ccco1)C(=O)c1ccc(F)cc1F)Nc1ccccc1C(F)(F)F | 2
Nc1c(C(=O)CSc2nnc(COc3ccc(Cl)cc3)o2)c(=O)[nH]c(=O)n1C1CC1 | -9
Cc1ccc(OCC(=O)N2CCCCC2C)c([N+](=O)[O-])n1 (stereo not given) | 4
CCOC(=O)CC1CCCCN1C(=O)CCCn1nnnc1CN1CCOCC1 (stereo not given) | -2
COc1ccc(C2(c3ccc(OC)cc3)NC(=O)N(CC(=O)NCC(C)c3ccccc3)C2=O)cc1 (stereo not given) | 0
O=C(CNC(=O)c1ccccc1F)OCc1nc2ccc(Cl)cc2n1CCO | 1
CSCC[C@H](N)C(=O)NCC1CCC(C(=O)Nc2ccc3c(c2)OCO3)CC1 (stereo not given in full) | -10
CSCCC1NC(=O)N(CC(=O)Nc2cccc(S(=O)(=O)N3CCCCCC3)c2)C1=O (stereo not given) | 3
COc1ccc(C(=O)O)cc1S(=O)(=O)Nc1ccc(Oc2ccccc2)cc1 | -4
COc1ccccc1OCC(=O)Nc1sc2c(c1C(N)=O)CCC2 | -3
COC(=O)C1=C(c2cccc(OCc3ccccc3)c2)C[C@@H]2CC[C@H]1N2C(=O)NCc1cc(C)oc1C(F)(F)F | 2
CCOC(=O)c1c(C)[nH]c(C(=O)OCC(=O)Nc2ccccc2)c1C | -3
CN(C)c1ccc(C(=O)OCC(=O)Nc2cccc(S(=O)(=O)N3CCCC3)c2)cc1 | -2
CCOc1ccc2oc(C(=O)N(C)CCc3ccc(OC)c(OC)c3)c(C)c2c1 | -1
Cc1ccc(OCCCC(=O)NNC(=O)c2ccccn2)cc1 | 100
CCc1ccc2c(COC(=O)C3CSC4(C)CCC(=O)N34)cc(=O)oc2c1 (stereo not given) | 3
Cc1c(NC(=O)C(C)Oc2ccc(Br)cc2)c(=O)n(-c2ccccc2)n1C (stereo not given) | -3
CC12CCC3c4ccc(O)cc4CCC3C1CCC2=O (stereo not given) | -3
Cc1ccc2c(c1)C1C[N+](C)(CC(=O)c3ccc(Cl)cc3Cl)CCC1N2C(=O)c1ccc(F)cc1 (stereo not given) | 84
O=C(NCCCN1CCCC1=O)C1CCN(S(=O)(=O)c2ccc(F)cc2)CC1 | -3
CC(C)(C)OC(=O)C[C@H]1C/C=C\C[C@H](CC(=O)N(CCO)Cc2ccccc2)C(=O)N[C@@H](c2ccccc2)COC1=O | -4
COCCn1c(SCC(=O)Nc2cccnc2Cl)nc2ccccc21 | 6
COc1ccccc1CCNC(=O)c1ccccc1SCC(=O)N1CCCC1 | -5
COc1ccc(NC(=O)N(C)C[C@H]2Oc3c(NC(=O)NC4CCCCC4)cccc3C(=O)N([C@H](C)CO)C[C@@H]2C)cc1 | 7
CN1CCN(S(=O)(=O)c2cccc(C(=O)Nc3sccc3C#N)c2)CC1 | -3
O=C(CCN1CCN(c2ccccc2F)CC1)Nc1cccc(F)c1 | -6
O=c1cc(-c2ccc(O)c(O)c2)oc2cc(O[C@@H]3O[C@H](CO)[C@@H](O)[C@H](O)[C@H]3O)cc(O)c12 | 1
CCOc1ccc(NC(=O)COC(=O)Cn2nc(C)c([N+](=O)[O-])c2C)cc1OCC | 1
Cc1cc(SCC(=O)Nc2ccc3[nH]c(=O)[nH]c3c2)nc2ccccc12 | 6
CCCC1CCc2[nH]nc(C(=O)NN)c2C1 (stereo not given) | -4
O=C(OCC(=O)N1CCOCC1)c1ccc(Cl)c(S(=O)(=O)N2CCc3ccccc32)c1 | -4
C=CCN1CCN(c2ccncc2S(=O)(=O)N2CCCCC2)CC1 | u
CCc1ccc(N2CC(C(=O)OCC(=O)Nc3ccc([N+](=O)[O-])cc3)CC2=O)cc1 (stereo not given) | 5

Five structures out of the list, arranged by heavy-atom count, low to high.
SMILES | Mtb betalactam
c1ccc(COc2cccc(CN3CCCCC3)c2)cc1 | 4
CCCC(NC(=O)c1ccc(Br)o1)c1nc2ccccc2[nH]1 (stereo not given) | -2
CCn1c(SCC(=O)Nc2sccc2C(N)=O)nnc1C1CC1 | -2
Cc1ccc(S(=O)(=O)Nc2ccc(S(=O)(=O)Nc3nccs3)cc2)cc1C | 4
CCC1CCCCN1CCN1C(=O)C2C(C(=O)Nc3ccc(OC)cc3)C3C=CC2(O3)C1C(=O)NC1CCCCC1 (stereo not given) | -4

Continuation.
SMILES | Mtb betalactam
CCCCN(C(=O)C1CCCC1)c1c(N)n(Cc2ccccc2)c(=O)[nH]c1=O | -9
CCN(CC)C(=O)c1cccc(NC(=O)C2=COCCO2)c1 | -10
O=C1CCc2ccccc2O1 | 0
CCC(C)Sc1cc(-c2nc3cc(C)ccn3c2NC2CCCCC2)ccc1OC (stereo not given) | 95
COc1cccc(C(=O)O[C@@H]2[C@H](Cc3ccccc3)NS(=O)(=O)[C@H]3C[C@@H]4C=C[C@]23O4)c1 | 8
CC(C)(C)c1csc(NC(=O)CCc2ccccc2)n1 | 5
CC1CCN(CC(=O)Nc2ccccc2C(=O)NC2CC2)CC1 | -12
CN(C(=O)CSc1nnc(Nc2ccccc2F)s1)C1CCS(=O)(=O)C1 (stereo not given) | 1
Cc1cc([N+](=O)[O-])ccc1NC(=O)CSc1nncn1-c1cccnc1 | -4
Cc1[nH]c2ccccc2c1C(=O)C(C)Sc1nnc(C2CC2)o1 (stereo not given) | -8

The list is partial, so the mix of outcomes need not match the whole.
